Screens as filed in PubChem.
KCNQ2 enhance = enhances the rat KCNQ2 potassium channel; B-score at 10 µM; CHO-K1 KCNQ2, FluxOR thallium flux fluorescence; active compounds read high; hit rate 0.54% among 310,000; O88943;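 active means fluorescence ratio B-score at least 3 SD of library B-scores, with initial fluorescence B-score within 3 SD, cut at about 5.3 in these data; same plate scores as AID 2156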;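 further: B-score of peak minus minimum over baseline fluorescence ratio after K+ and Tl+ stimulus; positive B-score means potentiation of KCNQ2 with more thallium influx and brighter signal; only the inactives scoring about 0 or higher are listed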
Target sequence (O88943 whole entry, looked up): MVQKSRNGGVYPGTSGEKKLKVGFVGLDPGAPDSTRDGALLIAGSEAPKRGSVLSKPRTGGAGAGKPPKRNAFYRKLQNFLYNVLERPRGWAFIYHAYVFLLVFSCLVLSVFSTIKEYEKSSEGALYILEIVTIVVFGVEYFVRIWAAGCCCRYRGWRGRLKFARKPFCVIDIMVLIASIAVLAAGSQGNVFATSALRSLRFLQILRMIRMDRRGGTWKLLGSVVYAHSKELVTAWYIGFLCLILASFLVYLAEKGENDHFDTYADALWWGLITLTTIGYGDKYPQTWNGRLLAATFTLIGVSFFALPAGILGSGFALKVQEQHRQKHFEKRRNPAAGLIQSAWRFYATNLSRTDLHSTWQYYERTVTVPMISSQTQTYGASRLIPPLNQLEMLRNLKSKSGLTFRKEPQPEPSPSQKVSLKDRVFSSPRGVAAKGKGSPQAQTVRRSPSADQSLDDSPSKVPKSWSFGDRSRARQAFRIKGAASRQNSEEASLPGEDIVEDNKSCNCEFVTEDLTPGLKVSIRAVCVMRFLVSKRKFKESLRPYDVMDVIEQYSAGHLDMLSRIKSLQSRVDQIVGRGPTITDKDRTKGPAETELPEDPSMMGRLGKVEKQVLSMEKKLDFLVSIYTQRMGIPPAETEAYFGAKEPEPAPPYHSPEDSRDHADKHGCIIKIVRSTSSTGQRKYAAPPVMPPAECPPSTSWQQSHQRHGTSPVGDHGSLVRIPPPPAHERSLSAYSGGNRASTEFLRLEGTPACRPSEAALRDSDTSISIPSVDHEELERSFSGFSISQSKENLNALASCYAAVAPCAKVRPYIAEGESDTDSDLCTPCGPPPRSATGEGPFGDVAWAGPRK
KCNQ2 enhance baseline = also measured in KCNQ2 enhance; calls as there; B-score; compound at 10 µM; measured here: initial fluorescence intensity artifact check;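 brightness before thallium and not channel activity; 0 = typical well and far values either way flag optical interference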
Starred values were filed as active, the others as inactive. An excerpt. The share of hits here may be higher or lower than overall.

The opening 7 compounds (preview)
SMILES	KCNQ2 enhance	KCNQ2 enhance baseline
COc1ccccc1Nc1nc(NCC(C)C)nc(N)c1[N+](=O)[O-]	1	-1.1
COc1cccc(C2=NOC(C(=O)NCc3ccco3)C2)c1 (stereo not given)	0.98	-1.6
CC(=O)c1cnc2nc(SCc3cccc(C)c3)nn2c1C	2.4	1
CCCSc1nc2c(cnn2-c2ccc(C)c(C)c2)c(=O)[nH]1	1.2	0.12
O=C(NCc1ccccc1)C1CCC(=O)N(CC2CCCCC2)C1 (stereo not given)	0.38	-0.18
CCCC12CN3CC(C)(CN(C1)C31C(=O)Nc3ccc(C)cc31)C2=O (stereo not given)	0.48	-0.56
CCOC(=O)N1CCN(CC(O)COc2ccccc2C(C)C)CC1 (stereo not given)	0.55	-2.3

The list itself (from the top)
SMILES	KCNQ2 enhance	KCNQ2 enhance baseline
COc1ccccc1Nc1nc(NCC(C)C)nc(N)c1[N+](=O)[O-]	1	-1.1
COc1cccc(C2=NOC(C(=O)NCc3ccco3)C2)c1 (stereo not given)	0.98	-1.6
CC(=O)c1cnc2nc(SCc3cccc(C)c3)nn2c1C	2.4	1
CCCSc1nc2c(cnn2-c2ccc(C)c(C)c2)c(=O)[nH]1	1.2	0.12
O=C(NCc1ccccc1)C1CCC(=O)N(CC2CCCCC2)C1 (stereo not given)	0.38	-0.18
CCCC12CN3CC(C)(CN(C1)C31C(=O)Nc3ccc(C)cc31)C2=O (stereo not given)	0.48	-0.56
CCOC(=O)N1CCN(CC(O)COc2ccccc2C(C)C)CC1 (stereo not given)	0.55	-2.3
CCC(=O)N(Cc1cc2ccc(C)cc2[nH]c1=O)c1ccccc1OC	0.9	-0.49
COc1ccc(NC(=O)N2CCN(S(=O)(=O)c3ccc(F)cc3)CC2)c(OC)c1	0.22	-0.4
CC(C)c1ccc(S(=O)(=O)N2CCN(C(=O)c3ccco3)CC2)cc1	1.3	-2.1
O=C(CSc1nncc2ccccc12)Nc1ccc(F)cc1	0.38	-0.68
CCOC(=O)c1oc2ccccc2c1NC(=O)CN1CCOCC1	0.57	-1.5
CC(C)(C)NC(=O)CSc1nc2ccccc2c(=O)[nH]1	1.9	-0.44
COc1ccc(CCNC2=NCCS2)cc1	2.4	-0.97
CC1(C)[C@H]2CC=C(CN3CCC(N4CCC(C(=O)N5CCCC5)CC4)CC3)[C@@H]1C2	0.7	0.75
CCOCCCNC(=O)CN1C(=O)c2ccccc2Sc2ncccc21	0.54	-0.01
CCOC(=O)c1sc2ncc([N+](=O)[O-])cc2c1N	0.32	0.96
COc1ccccc1N1CCN(C(=O)c2ccc3c(=O)n(Cc4ccc5c(c4)OCO5)c(=O)[nH]c3c2)CC1	1.1	-0.76
CN(C)CCCN(C(=O)c1ccc(S(=O)(=O)N2CCOCC2)cc1)c1nc2cc3c(cc2s1)OCO3	0.69	2.9
O=C(c1cc2ccccc2oc1=O)N1CCCC1	0.13	-0.67
C/C=C\C(=O)Nc1cccc(C2=NOC3(C2)C[C@@H](C(N)=O)N(C(=O)COc2ccc(Cl)cc2)C3)c1 (stereo not given in full)	1.7	2.4
COc1ccc(-c2nc(NCCCN(C)C)c3ccccc3n2)cc1	1.4	0.82
COc1cccc2c1OCC(C(=O)Nc1nccs1)=C2	0.02	0.94
COc1cc(/C(C)=N/N2CCN(c3ccccc3OC)CC2)ccc1O	1.2	-0.88
CCOC(=O)c1sc(NC(=O)c2ccoc2C)c(C(N)=O)c1C	0.24	0.09
O=C(N[C@@H](Cc1c[nH]c2ccccc12)C(=O)O)c1ccc(Cl)cc1	1	-1.1
Cc1ccc(C(=O)NNC(=O)c2ccccc2-n2cccc2)cc1	0.61	2.1
COc1ccc2c(c1)[nH]c1c(=O)n(CCCN3CCOCC3)cnc12	1.3	0.08
O=C(c1ccccc1)c1ccc(COC(=O)c2cnccn2)cc1	2.6	-1
O=C(NCCCNC(=O)c1ccccc1)c1ccccc1	1.4	1.2
CCCNC(=O)CCn1nc(-c2ccc(C)cc2)c2ccccc2c1=O	0.6	0.13
O=C(COc1ccc(F)cc1)NCC1CCCO1 (stereo not given)	0.82	-1.2
CCOC(=O)C(=O)Nc1ccc(F)cc1	0.88	1.3
Cc1ccccc1CC(=O)N1CC(C)OC(C)C1 (stereo not given)	0.52	-0.73
O=[N+]([O-])c1ccccc1SN(Cc1ccccc1)c1ccccn1	0.73	0.02
CCC1(c2ccc(Cl)cc2)NC(=S)N(c2ccccc2)N1 (stereo not given)	11*	1.7*
CCN1C(=O)/C(=C/c2ccc(C)s2)NC1=S	4.1	1.9
COC(=O)c1cccc(C23CC4(C2)[C@H](CN(Cc2cccnc2)[C@@H]4c2ccccc2)C3c2ccc(C(F)(F)F)cc2)c1 (stereo not given in full)	0.24	-1.2
COc1ccc2c(c1)O[C@H]1c3ccc(O)cc3OC[C@@H]21	0.01	0.3
CCN1CCc2c(sc(NC(=O)Cc3ccccc3)c2C(=O)OC)C1	0.56	-2.3
COC(=O)CN1CCN(C(c2ccccc2)c2ccccc2)CC1	0.22	-0.48
Cc1cccc2c(=O)cc(C)n(CC(N)=O)c12	1.4	-0.5
Cn1c(C(=O)N2CCC(C(=O)N3CCOCC3)CC2)cc2sccc21	0.97	1.5
CCOC(=O)c1cnn(-c2nc(-c3ccc(F)cc3)cs2)c1C(F)(F)F	0.88	-2.8
CC(=O)c1cccc(NC(=O)CN(c2ccccc2)S(C)(=O)=O)c1	0.63	-1.6
Cc1nn(-c2ccccc2)c2[nH]c(=O)cc(C(F)(F)F)c12	2.9	0.03
CCCn1nnnc1-c1cccc(Cl)c1	0.32	0.57
Cc1ccc(O)c(-c2cc(C(=O)Nc3ccc(S(=O)(=O)Nc4nccc(C)n4)cc3)[nH]n2)c1	0.49	-0.51
COc1ccc(CCN=C(N)Nc2nc(C)cc(C)n2)cc1	0.58	-0.21
CC1C(=O)N2CCCc3cc(NC(=O)CC(C)(C)C)cc1c32 (stereo not given)	1.8	-1.1
CCOCCCn1c(=S)[nH]c2cc(C(=O)N3CCN(C4CCCCC4)CC3)ccc2c1=O	0.01	-0.09
CCOC(=O)c1ccc(CC2S/C(=C(\C#N)C(C)=O)NC2=O)cc1 (stereo not given)	0.01	-0.74
Clc1ccc2c(NNc3ccccc3Cl)ccnc2c1	1.5	-0.87
O=C(Nc1ccon1)Nc1ccc(F)cc1F	0.5	-0.06
COc1cccc(-c2c(C#N)c(SC)nc3cc(C)nn23)c1	0.1	2
Cc1cc(C)n(-c2cc(Oc3ccccc3)ncn2)n1	0.03	-0.11
C=CCN1C(c2ccccc2)=CS/C1=C(/C#N)c1nnc(N2CCOCC2)n1-c1ccccc1	0.13	-2.8
NS(=O)(=O)c1ccc(CCNS(=O)(=O)c2ccc(Cl)cc2)cc1	1.3	0.67
CCN(CCNC(=O)CC1Oc2ccccc2NC1=O)c1ccccc1 (stereo not given)	0.02	1.8
CC(=O)c1cccc(NC(=O)C2CC(=O)N(Cc3ccccc3)C2)c1 (stereo not given)	0.81	-0.86

Structures listed so far with a nitro group on carbon (three):
SMILES	KCNQ2 enhance	KCNQ2 enhance baseline
COc1ccccc1Nc1nc(NCC(C)C)nc(N)c1[N+](=O)[O-]	1	-1.1
CCOC(=O)c1sc2ncc([N+](=O)[O-])cc2c1N	0.32	0.96
O=[N+]([O-])c1ccccc1SN(Cc1ccccc1)c1ccccn1	0.73	0.02

(more compounds)
SMILES	KCNQ2 enhance	KCNQ2 enhance baseline
C=CCN(C#N)c1nc(OC)nc(N2CCCC2)n1	0.03	1.3
CCn1c(SCC(=O)N2CCCCC2)nc(O)cc1=O	0.88	1.6
CCn1nnc2cc(C(=O)O)ccc21	0.79	0.03
COc1ccc(/C=C/C(=O)O/N=C(\N)c2ccccc2)cc1OC	1.6	-0.98
CC(C)N(Cc1ccccc1)C(=O)COC(=O)c1ccccc1SCC(=O)N1CCCC1	0.06	3.2
OCCN(CC#CCn1c2ccccc2c2ccccc21)CCO	0.05	-0.46
O=C(c1ccco1)N1CCN(C(=O)c2cc(-c3ccc(F)cc3)no2)CC1	0.14	-0.69
COC(=O)CSc1nnc(-c2ccco2)n1Cc1ccco1	1.9	1.8
COc1ccccc1N1CCN(C(=O)c2ccncc2)CC1	0.6	0.21
O=C(CSc1nccn1Cc1ccccc1)NC1CCCC1	0.1	0.47
Cc1c(NC(=O)c2cccs2)cccc1NC(=O)c1cccs1	0.14	-0.43
COc1cccc(N2CCN(c3nc(C)cc(=O)[nH]3)CC2)c1	0.26	-0.25
N#Cc1nc(-c2ccccc2)oc1N1CCC(C(N)=O)CC1	1.6	1.5
COc1cc(C(=O)OCC(=O)NC2CCS(=O)(=O)C2)c([N+](=O)[O-])cc1OC (stereo not given)	1.2	-0.06
O=C1CC(c2ccc(F)cc2)CC(O)=C1C=NCCN1CCNCC1 (stereo not given)	0.15	-0.95
NC(=O)c1ccccc1OCc1nnc(-c2ccccc2Br)o1	0.45	0.33
Nc1ncnc(Sc2ccccc2)c1[N+](=O)[O-]	2.1	0.72
CCOC(=O)c1nnn(-c2nc(N3CCCC3)nc(N3CCCC3)n2)c1-c1ccccc1	0.83	-0.2
CCCc1cc(=O)n2[nH]c(NCc3ccccc3F)nc2n1	0.92	-0.26
Cc1ccc(/C=C/C(=O)c2ccccc(=O)c2O)cc1C	6.1*	0.24*
Cc1cc(C)n(C2CC(=O)N(c3ccc(Cl)c(Cl)c3)C2=O)n1 (stereo not given)	0.31	1.8
COc1ccc(N2CC(C(=O)Nc3cc(C)ccn3)CC2=O)cc1 (stereo not given)	0.94	1.2
CN1/C(=C/C(=O)c2ccc(Cl)cc2)Sc2cc3c(cc21)OCO3	0.01	2.6
O=C(Nc1cccc(Cl)c1)c1ccc(-n2cncn2)c([N+](=O)[O-])c1	0.68	-0.13
CCN(c1ccccc1)S(=O)(=O)c1ccc2[nH]cc(C(=O)NCCOC)c(=O)c2c1	2.1	-0.04
CCOC(=O)CSc1nc2sc(C)c(C)c2c(=O)[nH]1	1.1	0.06
COc1ccc(C(=O)c2c[nH]cc2-c2ccccc2)cc1	1.4	-0.7
O=C(OCC(=O)N1CCOCC1)c1ccc[nH]c1=O	1.2	0.57
CCOc1ccc2nc(SCC(=O)Nc3cc(C)on3)c(C)cc2c1	1.6	1.3
O=C(NCc1ccco1)c1ccccc1NS(=O)(=O)c1cccs1	0.64	0
CCN(CC)S(=O)(=O)c1ccc2c(c1)nc(-c1ccccn1)n2C	0.11	0.76
O=C1c2ccccc2C2NC(=O)C3(CCCCC3)N12 (stereo not given)	1.7	0.48
CSc1ccc(/C=N/N2CCN(Cc3ccccc3Cl)CC2)cc1	0.14	1
NC(=O)CSc1nnc(Cc2cccs2)n1C1CCCCC1	0.35	1.6
CC(=O)O[C@H]1C2OC(=O)C(C)=C2[C@@H]2OC(=O)[C@]3(CCC4OC41C)OC23 (stereo not given in full)	0.07	-0.29
O=C(Nc1cccc(C(=O)Nc2ccc(Cl)cn2)c1)c1ccccc1	0.02	-0.37
COc1ccc(-c2nn(CCC(=O)O)cc2/C=C2\SC(N)=NC2=O)cc1	0.38	1.6
COc1ccc(C2C(C(=O)Nc3cccc(OC)c3)c3ccccc3C(=O)N2C)cc1 (stereo not given)	1.5	-0.1
O=C1CC(N2CCN(Cc3ccc4c(c3)OCO4)CC2)C(=O)N1CCc1ccccc1 (stereo not given)	4.1	0.48
O=C(CCc1ccccc1)NN1C(=O)C2C3C=CC(C3)C2C1=O (stereo not given)	0.95	-1.4

The list goes on; it opens with the 2 that closed the last part.
SMILES	KCNQ2 enhance	KCNQ2 enhance baseline
O=C1CC(N2CCN(Cc3ccc4c(c3)OCO4)CC2)C(=O)N1CCc1ccccc1 (stereo not given)	4.1	0.48
O=C(CCc1ccccc1)NN1C(=O)C2C3C=CC(C3)C2C1=O (stereo not given)	0.95	-1.4
CCCCN(C)C(=O)c1nc2ccccn2c1CNCCCn1nnc2ccccc21	1.1	-1
Cc1ccc(C(=O)Nc2ccc(NC(=O)c3ccco3)c(C)c2)cc1	0.8	-1.8
CS(=O)(=O)N1CCC(C(=O)NNC(=O)Nc2ccc(F)c(Cl)c2)CC1	0.16	0
CCCOc1ccc(OCC(=O)c2[nH]c(C)c(C(C)=O)c2C)cc1	0.05	-1.2
Cn1c(CCN2CCCCC2)nc2cc([N+](=O)[O-])ccc21	2.1	-0.26
FC(F)(F)c1cnc(-c2cnc3c(-c4ccc(Cl)cc4)cnn3c2)c(Cl)c1	0.65	0.01
CCC1CCCCN1C(=O)CSc1nc(N)cc(=O)[nH]1 (stereo not given)	1.1	1.4
Cc1cccc(Nc2nc(N)nc(CN3CCN(c4ccccc4F)CC3)n2)c1	3.6	-0.1
Cc1ccc(S(=O)(=O)c2nc(-c3cccs3)oc2SCC(N)=O)cc1	1.1	-2.8
OCCCc1nc2ccccc2n1CCCCOc1ccccc1	1.3	0.49
CC(=O)C1=C(C)NC(SCC(N)=O)=C(C#N)C1c1ccco1 (stereo not given)	0.4	0.1
Cc1cc(C)nc(/N=C(\N)Nc2ccc(OCc3ccccc3)cc2)n1	0.38	0.11
CC(=O)OC(C(=O)NCc1ccco1)c1ccncc1 (stereo not given)	0.21	-1.3
COc1ccc(N2CCN(CCCNC(=O)CCC(=O)N3CCOc4ccc(Cl)cc43)CC2)cc1	1.5	1.3
N#C/C(=C\c1c(N(Cc2ccccc2)Cc2ccccc2)nc2ccccn2c1=O)C(N)=O	0.7	0.03
CC(C)NC(=O)CCCc1cn(C)c2ccccc12	0.08	-1.4
CCn1cc(C(=O)NCC2CCCO2)c(=O)c2cc(F)c(N3CCN(C)CC3)cc21 (stereo not given)	0.44	-2.9
O=C1NCCN/C1=C\C(=O)c1ccc(F)cc1	0.75	-1.1
O=C(Nc1ccccc1-c1ccccc1)C(=O)Nc1ccccc1-c1ccccc1	0.46	4
COc1ccc(CNC(=O)c2onc(C)c2Cl)cc1	0.97	0.34
